Bst PK mod: modulators of Bacillus stearothermophilus pyruvate kinase; partly purified Bacillus stearothermophilus pyruvate kinase, luminescence ATP production; ribose 5-phosphate activator present at AC10; Potency, µM; hit rate 1.2% among 51,000; in the data active means potency below about 11 µM; inconclusive means mostly about 12 µM to 25 µM; inactive means weaker than that;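 the screen sought inhibitors and activators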;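 also: potency is read from the fitted curve at half-maximal effect; scaled between full activation by ribose 5 phosphate and full inhibition by luteolin; about four in five hits inhibit and the cells do not say which; series up to 57 µM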
YjeE inh: YjeE (TsaE) inhibition, E. coli | P0AF67 | purified YjeE, fluorescence polarisation of a bound ADP probe | Potency, µM | hit rate 0.05% among 71,000 | AID 605; active = well fitted falling curve; inconclusive = weaker or top-dose-only fall, or a rising curve; inactive = flat or poorly fitted curve;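 also: top concentration of the series not given in the record; excess ADP was the control for the full effect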
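Fluorescence polarization of a BODIPY Texas Red–ADP probe (2 uM) bound to purified YjeE (10 uM) was read after 15 min room-temperature incubation with compounds. Loss of polarization marks inhibitors; ADP serves as titrated control.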
Numbers without * were called inactive; i = inactive; u = inconclusive; x = no result given. An excerpt; the hit share may differ from the screen's.

SMILES,Bst PK mod,YjeE inh
CCc1c(C)sc(NC(=O)c2cccs2)c1C(=O)OC(C)C,x,i
Brc1ccc(C2=Nn3c(nnc3-c3ccncc3)SC2)cc1,>57,i
COc1cc(NC(=O)CCn2c(=O)[nH]c3ccsc3c2=O)cc(OC)c1,>57,i
COc1ccc(C2=NOC3(CC(=O)N(c4ccc(C)cc4)C3=O)C2)c(OC)c1 (stereo not drawn),>57,i
O=C(Nc1nccs1)C1CCN(S(=O)(=O)c2cnc[nH]2)CC1,>57,i
CC1C2C(c3ccccc3)N(C)C(=O)N(C)C2N(C)C(=O)N1C (stereo not drawn),>57,i
CCOC(=O)c1cnn(-c2cc(C)nc3c(-c4ccccc4)c(C)nn23)c1N,>57,i
COc1ccc(C)cc1NS(=O)(=O)c1cn(C)c(=O)n(C)c1=O,x,i
COC(=O)COc1ccc2c(=O)c(Oc3ccccc3)c(C)oc2c1,x,i
COC(=O)c1c(-c2cc(OC)c(OC)c(OC)c2)c2ccc(OCc3ccccn3)cc2c(=O)n1-c1ccc(N)cc1,x,i

New compounds follow.
SMILES,Bst PK mod,YjeE inh
COCCCn1c(=N)c(C(=O)NCc2ccc3c(c2)OCO3)cc2c(=O)n3cccc(C)c3nc21,>57,i
CCCCOc1ccccc1NC(=O)CSc1nnnn1C(C)(C)C,>57,i
CCCC(=O)Nc1ccc(N2CCN(C(=O)c3cccs3)CC2)cc1,>57,i
COc1ccc(C2C(C#N)=C(N)Oc3c2oc(CO)cc3=O)c(OC)c1OC (stereo not drawn),>57,i
C/C=C/c1ccc(OCCCN2C(=O)NC(C)(C)C2=O)c(OC)c1,>57,i
COc1ccccc1NC(=O)Nc1c(C)n(C)n(-c2ccccc2)c1=O,>57,i
COc1ccccc1CC(=O)Nc1ccc(O)cc1C(=O)O,>57,i
Cc1c(NC(=O)Oc2ccccc2)sc(=S)n1C,x,i
O=C(NCc1ccc2c(c1)OCO2)c1cccc(F)c1,x,i
O=C(Cn1c(SCC(=O)N2CCCc3ccccc32)nc2ccccc21)N1CCCC1,>57,i

Remaining list, next part:
SMILES,Bst PK mod,YjeE inh
O=C(O)CCc1nc(-c2ccccc2)no1,>57,i
O=C(c1cc(S(=O)(=O)N2CCCCC2)ccc1F)N1CCCCC1,>57,i
COc1ccc(CN(C(=O)c2oc3ccccc3c2C)C2CCS(=O)(=O)C2)cc1OC (stereo not drawn),>11.4,i
Cc1cc(C)n2nc(S(=O)(=O)NC3CCCCC3)nc2n1,x,i
O=C1CSC(c2cn(-c3ccccc3)nc2-c2cc3ccccc3oc2=O)N1Cc1ccco1 (stereo not drawn),>57,i
Cc1ccc(/C=c2\s/c(=C(/C#N)C(=O)N3CCCC3)n(Cc3ccco3)c2=O)s1,>57,i
COC(=O)C(C(=O)OC)=C(/C=C/N(C)C)N(C)C,x,i
COc1ccc(NC(=O)c2nnn(Cc3ccc(SC)cc3)c2N)c(OC)c1,x,i
O=C1CC(c2ccco2)CC(O)=C1C=Nc1cc(Cl)ccc1O (stereo not drawn),>25.6,x
O=C(NC1CC1)c1ccc(CS(=O)(=O)c2c(Cl)cccc2Cl)o1,x,i

Further structures follow.
SMILES,Bst PK mod,YjeE inh
O=C(CSc1nnc(-c2c[nH]c3ccccc23)o1)N(Cc1ccccc1)c1ccc(F)cc1,>57,i
COC(=O)C1=C(C)N(C)C(C)=C(C(=O)OC)C1c1ccc(C(=O)OC)cc1,x,i
C/C=C(\C)CN1CCc2cc(OC)c(OC)cc2C1,>57,i
N#CCCN(CCC#N)c1nnc(-c2ccccc2)s1,>25.6,x
CCOc1cc(CNc2ncc(-c3ccc(OC)cc3)n2C)ccc1O,>57,i
Cc1ccc(SCCC(=O)N(C)C)cc1,>57,i
CCCCOC(=O)C1=C(C)Nc2ncnn2C1c1cccc(OC)c1 (stereo not drawn),>57,i
O=C(Nc1ccc(-n2cnnn2)cc1)C1CCC1,>57,i
CCOC(=O)c1ccc(NC(=O)CS(=O)(=O)c2cn(CC)c3ccccc23)cc1,>57,i
Cc1cc(C(C)(C)C)ccc1OCCN(C)C,x,i

More entries
SMILES,Bst PK mod,YjeE inh
CCCCNS(=O)(=O)c1ccc2nc(SCC(=O)c3ccc(C#N)cc3)[nH]c2c1,>57,i
O=C1NC(NS(=O)(=O)c2ccccc2)(C(F)(F)F)C(=O)N1Cc1cccnc1 (stereo not drawn),>57,i
COc1ccccc1NC(=O)CSc1ccc2nnc(-c3ccccn3)n2n1,x,i
C=C1CC23C[C@H]4[C@@H]5[C@@]6(C)C[C@H](OC(=O)c7ccccc7)[C@@H](OC(C)=O)[C@]57[C@@H]2[C@@H](OC(C)=O)[C@H]1[C@@H](O)[C@H]3[C@H]7N4C6,x,i
Cc1noc(C)c1-c1nc(Nc2ccncc2)c2ccccc2n1,x,i
CCNc1c2c3c(cccc3n(C)c1=O)C(=O)c1ccccc1-2,x,i
CCOCC(=O)Nc1nc2ccc(S(C)(=O)=O)cc2s1,>57,i
CCCc1cc(N2CCCC(C(=O)NCc3ccc4c(c3)OCO4)C2)n2ncnc2n1 (stereo not drawn),>57,i
CCN(CC)S(=O)(=O)c1ccc(F)c(C(=O)NCCC(C)C)c1,>57,i
CC(=NCC1CCCO1)c1c(O)[nH]c(=O)[nH]c1=O (stereo not drawn),>57,i

Remaining list, next part.
SMILES,Bst PK mod,YjeE inh
O=S(=O)(c1cnccc1N1CCN(CCO)CC1)N1CCCC1,x,i
O=C(CSc1ncnc2ccccc12)N1CCCC1,x,i
CCCc1nnc(NC(=O)c2c(O)c3cccc4c3n(c2=O)CCC4)s1,>57,i
CCCCCc1c(C)nc(NCc2ccccc2)[nH]c1=O,>57,i
Cc1ccc(NC(=O)CSc2nnc(-c3cnccn3)n2Cc2ccco2)cc1C,>57,i
CCC(=O)N1CCc2cc(S(=O)(=O)NC(C(=O)NC(C)c3ccccc3)C(C)C)ccc21 (stereo not drawn),>57,i
Cn1ccnc1Sc1nc2c(c(=O)n(C)c(=O)n2C)n1C,>57,i
Cc1ccc(-n2nnnc2SCc2nnc(-c3ccccc3Br)o2)cc1,>57,i
CCOC(=O)c1cc(-c2ccccc2)sc1N,i,i
COc1cc(C(c2sc3nc(C)nn3c2O)N2CC(C)CC(C)C2)cc(OC)c1OC (stereo not drawn),x,i

Next compounds
SMILES,Bst PK mod,YjeE inh
CC1CCC(C(C)C)C(OC(=O)CSc2n[nH]c(=O)[nH]c2=O)C1 (stereo not drawn),i,i
CCOc1cc(NC(=O)c2cnccn2)c(OCC)cc1NC(=O)c1ccc(OC)cc1,>57,i
CC1=C(C(=O)NCc2ccccc2)C(c2ccccc2OCC(N)=O)NC(=O)N1 (stereo not drawn),>57,i
Cn1c(SC2C(=O)CC(C)(C)CC2=O)nnc1-c1ccco1,>57,i
COc1ccccc1Nc1ncnc2ccccc12,>57,i
Cc1ccc2c(c1)c(C)c(C)n2CC(O)CN1CCCCC1C (stereo not drawn),x,i
COc1ccc(S(=O)(=O)NCCSCc2ccco2)cc1,>57,i
C1=CCC(/C=N/n2cnnc2)CC1 (stereo not drawn),>57,i
C=CCn1c(SCC(=O)Nc2ccc(N(C)C)cc2)nnc1-c1cccc(C)c1,>57,i
COCc1nc2ccccc2n1CCCOc1ccccc1,>57,i

The list continues:
SMILES,Bst PK mod,YjeE inh
O=C(NC1CCCCC1)N1CCN(Cc2nc3ccccc3c(=O)[nH]2)CC1,>57,i
CCOc1ccc(N2C(=O)CC(SCCN)C2=O)cc1 (stereo not drawn),x,i
CCn1c(=O)c(-c2ccccc2)c(O)c2ccccc21,>57,i
c1ccc(-n2c(-c3ccncc3)nnc2-c2ccco2)cc1,>57,i
CNC(=O)c1ccccc1-c1ccccc1,>57,i
COc1ccc(/C(O)=C2/C(=O)C(=O)N(CCN3CCOCC3)C2c2cccnc2)cc1OC (stereo not drawn),>25.6,x
COc1cc(C(C)=O)ccc1OCC(=O)c1cc(C)n(C2CC2)c1C,>57,i
CCOc1ccc(-c2nnn(CC(=O)Nc3cc(OC)cc(OC)c3)n2)cc1OCC,>57,i
COC(=O)[C@@]1(Cc2ccc(OC)cc2)[C@@H]2C(=CC(=O)[C@H]2CC(=O)C(=O)N2CCCC2)CN1C(=O)c1ccccc1,x,i
Cn1c2c(c(=O)n(C)c1=O)CN(Cc1ccc3c(c1)OCO3)CN2,>57,i

The results go on:
SMILES,Bst PK mod,YjeE inh
CCN(CC)S(=O)(=O)c1ccc2[nH]cc(C(=O)NCCc3ccccc3)c(=O)c2c1,>57,i
CSc1nsc(SC)c1C(=O)NCCNS(=O)(=O)c1ccc(C)cc1,>57,i
COCCCn1c(SCC(=O)Nc2cccc(C)n2)nnc1-c1ccco1,>57,i
COc1ncc2nc(-c3ccc(F)cc3)c(=O)n(Cc3ccc(F)cc3)c2n1,x,i
COC(=O)N1CCC2(CCN(Cc3ccc(C#N)cc3)CC2)CC1,x,i
O=C1CCC2CCCCC2(O)O1 (stereo not drawn),>57,i
CCOC(=O)CC(=O)CSc1nc2ccc(C)cc2cc1C#N,u,i
O=C(NCc1ccc(F)cc1)C1CC(=O)N(CCc2ccccc2)C1 (stereo not drawn),>57,i
CCOC(=O)NC(Nc1sc2c(c1C(N)=O)CCCC2)(C(=O)OCC)C(F)(F)F (stereo not drawn),>25.6,x
c1ccc(Nc2ncnc3ccc(-c4cccnc4)cc23)cc1,x,i

Carrying on:
SMILES,Bst PK mod,YjeE inh
CCCCOC(=O)CSc1nnc(-c2ccc(Cl)cc2Cl)o1,>57,i
CCOc1ccccc1OCC(=O)O,>57,i
CCOC(=O)c1cnn2c(C(F)F)cc(C3CC3)nc12,>57,i
CCCn1c(C)nc2c(NC3CCCCC3)nc(C)nc21,x,i
O=c1[nH]c(SCc2cc(=O)n3ccccc3n2)nc2c1CCC2,>57,i
CC(C)(C)c1ccc(-c2nnc(SCc3ccc(Cl)cc3)n2-c2cccc(C(F)(F)F)c2)cc1,x,i
O=c1c(-c2ccccc2)nc2cnc(Nc3ccccc3)nc2n1C[C@H]1CCCO1,x,i
Nc1c(OCC(=O)O)ccc2cc(S(=O)(=O)O)ccc12,x,i
CCOC(=O)c1c(C)oc2c1c(C(c1ccncc1)N1CCOCC1)c(O)c1ccccc12 (stereo not drawn),x,i
Cn1cc(Br)c(C(=O)NC2CCCCC2)n1,>57,i

Continued:
SMILES,Bst PK mod,YjeE inh
CCN(CC)C(=O)N1CCC(NC(=O)c2ccc(C(C)(C)C)cc2)CC1,>57,i
CC(NC(=O)c1ccc(Cl)cc1)C(=O)NC1=NCCS1 (stereo not drawn),>57,i
CCn1c(SCC(=O)Nc2cc(C)on2)nc2sc3c(c2c1=O)CCCC3,>57,i
NC(=O)c1c(N)sc2c1CCCC2,x,i
CCOC(=O)CCSc1nc2c(c(C(F)(F)F)c1C#N)CCC2,>57,i
CC1(C)Cc2nc3sc4c(SCC(=O)NCc5ccco5)ncnc4c3cc2CO1,i,i
CCCN(C(=O)Cc1nc(N)n[nH]1)C1(C(=O)Nc2c(C)cccc2C)CCCCC1,>57,i
COC(=O)[C@@]1(Cc2ccc(F)cc2)[C@H]2c3cc(C(=O)N(C)C)n(Cc4ccc(C)o4)c3C[C@H]2CN1C(=O)c1ccccc1,x,i
O=C(Nc1ccc(N2CCCCC2)cc1)c1ccc(F)cc1,x,i
CC(Sc1nc(N2CCOCC2)nc(N2CCOCC2)n1)C(=O)Nc1ccccc1 (stereo not drawn),>57,i

Molecules shown so far containing a cyano group, in the order listed:
SMILES,Bst PK mod,YjeE inh
COc1ccc(C2C(C#N)=C(N)Oc3c2oc(CO)cc3=O)c(OC)c1OC (stereo not drawn),>57,i
Cc1ccc(/C=c2\s/c(=C(/C#N)C(=O)N3CCCC3)n(Cc3ccco3)c2=O)s1,>57,i
N#CCCN(CCC#N)c1nnc(-c2ccccc2)s1,>25.6,x
CCCCNS(=O)(=O)c1ccc2nc(SCC(=O)c3ccc(C#N)cc3)[nH]c2c1,>57,i
COC(=O)N1CCC2(CCN(Cc3ccc(C#N)cc3)CC2)CC1,x,i
CCOC(=O)CC(=O)CSc1nc2ccc(C)cc2cc1C#N,u,i
CCOC(=O)CCSc1nc2c(c(C(F)(F)F)c1C#N)CCC2,>57,i

(continued)
SMILES,Bst PK mod,YjeE inh
Oc1ccc(CNc2ccccc2F)c2cccnc12,>57,i
CC(=O)c1cccc(NC(=O)C2CCN(S(=O)(=O)c3ccc(F)cc3)CC2)c1,x,i
CCC1(c2cccc(Cl)c2)NC(=O)N(Cc2cc(C(=O)OC)c(C)o2)C1=O (stereo not drawn),>57,i
CCC(Sc1nc(C)cc(=O)[nH]1)C(=O)Nc1nnc(C)s1 (stereo not drawn),>57,i
COc1cc2[nH]c3c(=O)n(CCN(C(C)C)C(C)C)cnc3c2cc1OC,>11.4,x
O=C(NCc1ccc2c(c1)OCO2)c1ccncc1,>57,i
COc1ccc(C2=[N+]([O-])C(C)(C)N(O)C2(C)C)cc1,x,i
COc1ccccc1OCC(O)Cn1nc(C)cc1C (stereo not drawn),>57,i
CCCCC(=O)Nc1cc(N(C)C)nc2ccccc12,>57,i
CCOC(=O)CN1CC23C=CC(O2)C(C(=O)NCc2ccc(F)cc2)C3C1=O (stereo not drawn),x,i
CCOc1cc2[nH]c(=O)n(CCCCC(=O)N3CCCCCC3)c(=O)c2cc1OCC,>57,i
O=C(Nc1cccc(F)c1)N1CCCC2(CCN(S(=O)(=O)c3ccccc3)CC2)C1,x,i
COC(=O)c1sc(NC(=O)c2cc3c(s2)CCCC3)nc1C,>57,i

Screening results as filed in PubChem BioAssay.
